# Screening data: PubChem BioAssay, several laboratories
# GALR2 agonist: GALR2 receptor agonists, primary screen, cell-based; Galanin receptor type 2 (Homo sapiens), O43603; GALR2-expressing cells, agonist activation read-out; activation, %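 (tested at 5 µM)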; 140,000 tested, 0.48% active;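 active means above mean plus 3 SD of all compounds, about 5% in these data, not always enough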;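 further: 0% = vehicle buffer wells and 100% = reference agonist at full effect; tested in CHO reporter cells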
# Target sequence (O43603 whole entry, looked up): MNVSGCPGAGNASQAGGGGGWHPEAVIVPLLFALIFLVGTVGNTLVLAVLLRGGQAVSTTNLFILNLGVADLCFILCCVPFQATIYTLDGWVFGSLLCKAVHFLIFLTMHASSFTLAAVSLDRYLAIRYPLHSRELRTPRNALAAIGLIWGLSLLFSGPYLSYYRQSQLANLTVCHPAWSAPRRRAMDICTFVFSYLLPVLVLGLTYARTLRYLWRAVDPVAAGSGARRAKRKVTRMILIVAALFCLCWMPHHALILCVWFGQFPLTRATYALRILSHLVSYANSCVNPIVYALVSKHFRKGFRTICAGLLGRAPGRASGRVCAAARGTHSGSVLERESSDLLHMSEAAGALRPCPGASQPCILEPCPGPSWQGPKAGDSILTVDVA
# RGS16-Gao HTS: modulators of RGS16 binding to Galphao, primary screen, biochemical, human proteins, multiplexed bead flow cytometry; 220,000 tested, 0.38% active; Regulator of G-protein signaling 16 (Homo sapiens) + Guanine nucleotide-binding protein …; AID 1441, 2008; bead-based flow cytometry RGS16-Galphao binding, fluorescence; actives lie on both sides; binding response (% of control), % at 10 µM;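 active means below 25% or above 175%, edge rows of some plates excepted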;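 further: Galphao activated by GDP with aluminum fluoride before binding; 100% = wells without compound and 0% = beads without RGS; some results beyond the cut were filed as inactive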
# Target sequence (O15492 whole entry, looked up): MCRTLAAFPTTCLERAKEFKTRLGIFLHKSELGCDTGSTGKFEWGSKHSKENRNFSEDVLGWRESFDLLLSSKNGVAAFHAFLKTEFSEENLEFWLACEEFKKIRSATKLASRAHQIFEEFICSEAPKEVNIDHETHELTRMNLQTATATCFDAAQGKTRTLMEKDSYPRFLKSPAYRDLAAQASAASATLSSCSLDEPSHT
# Target sequence (P09471 whole entry, looked up): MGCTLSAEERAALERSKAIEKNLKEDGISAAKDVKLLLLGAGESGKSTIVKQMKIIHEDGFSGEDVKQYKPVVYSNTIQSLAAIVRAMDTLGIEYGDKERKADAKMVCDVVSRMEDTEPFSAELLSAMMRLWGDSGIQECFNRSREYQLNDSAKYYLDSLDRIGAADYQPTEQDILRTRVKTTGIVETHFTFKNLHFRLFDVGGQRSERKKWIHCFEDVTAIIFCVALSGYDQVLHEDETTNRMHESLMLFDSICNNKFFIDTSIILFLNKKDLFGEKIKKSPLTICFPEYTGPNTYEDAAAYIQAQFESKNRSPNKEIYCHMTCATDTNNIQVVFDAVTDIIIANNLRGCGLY
# HSV augment: enhancers of HSV replication in host cells, fold increase, host cell viability; HSV replication augmentation in cells; maximum fold increase; AID 1956, 2009; 220,000 tested, 0.005% active;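 active means peak rise of 1.5-fold or more in the series; inconclusive means self-fluorescent or not available for retest; tested in PC3 cells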;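 further: first round at 10 µM; read as green reporter fluorescence; hits show the peak of a series up to 25 µM; 1 = signal of infected wells without compound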
# PKD1 kinase inh: inhibitors of human PKD1 kinase, biochemical, fluorescence polarization; Serine/threonine-protein kinase D1 (Homo sapiens), Q15139; PKD1 kinase fluorescence polarization assay; inhibition, %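 (about 10 µM by stock and volumes)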; 200,000 tested, 0.056% active; AID 797, 2007;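 active means inhibition of 50% or more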;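 further: controls were vehicle for no effect and a reference inhibitor for full effect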
# INS promoter inh: inhibitors of insulin promoter-driven GFP, primary screen, imaging, TRM-6 cells (human fetal islet line), eGFP reporter, cell count. reporter expression induced with tamoxifen. inhibition, % at 2 µM. 130,000 tested, 0.9% active. AID 1273, 2008;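 active means inhibition above the mean plus 3 SD, with well images judged a real hit on visual review, cut at about 60% in these data, passing the limit was not always enough; inconclusive means inhibition over the cutoff but images rejected on review; inactive means inhibition not above the cutoff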
# INS promoter inh cell count: second read-out of INS promoter inh, no call of its own (marks repeat the call); normalized cell count, %; measured here: cell count, toxicity; reference of the scale not given here;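 cells exposed to compound for 48 h; stained nuclei by imaging scaled within each plate; lower means fewer cells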
# HSV augment primary fold: recorded beside HSV augment, whose call it bears; fold increase; compound at 10 µM; measured here: primary screen fold increase 10 uM; tested in PC3 cells;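 GFP signal in the first replicate; 1 = infected wells without compound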
# An asterisk follows results filed as active; i = inactive; ? = inconclusive; . = no result given.
SMILES,GALR2 agonist,RGS16-Gao HTS,HSV augment,HSV augment primary fold,PKD1 kinase inh,INS promoter inh,INS promoter inh cell count
CCC(=O)O/N=C(\N)c1ccc(Oc2cc(C)c(Cl)c(C)c2)c([N+](=O)[O-])c1,.,90,i,0.94,.,.,.
N#CCSc1nnc(CNc2cccc(Cl)c2)o1,-1.2,168,i,0.9,-4,21,116
O=C(Nc1nc2ccccc2c(=O)s1)c1ccco1,.,98,i,0.96,.,.,.
Cc1ccc(Cc2nc(-c3cccnc3)no2)cc1,-0.1,115,i,0.92,-12,-72,120
O=C(O)CCS(=O)(=O)c1nc(-c2cccs2)cc(C(F)(F)F)n1,-2.0,103,i,0.8,2,7,57
CCOC(=O)CNC(=S)N(CCCN1CCCC1)Cc1cccs1,.,111,i,1,3,40,77
CCn1c(SCC(=O)c2ccc(NC(C)=O)c(OC)c2)nnc1-c1ccc(NS(C)(=O)=O)cc1,-1.1,103,i,0.97,-2,34,55
CCN(CC)S(=O)(=O)c1ccc(OC)c(NC(=S)Nc2ccc(C)c(C)c2)c1,-0.5,98,i,0.96,-1,0,139
CCN1C(=O)CS/C1=N\c1nccs1,-0.9,98,i,0.95,5,29,84
N#C/C(=C\Nc1ccc(Cl)cn1)S(=O)(=O)c1ccccn1,.,97,i,1,.,.,.
O=C1NC[C@H](Cc2ccccc2)N(CC2CCCCC2)C1=O,.,100,i,0.8,.,.,.
Cc1ccccc1NC(=O)c1nn(-c2ccc(F)c(F)c2)ccc1=O,.,98,i,1.2,3,.,.
O=S(=O)(CCn1cccc1)CCn1cccc1,-0.3,102,i,1,-5,-18,63
Cn1c(CN2CCN(CC#N)CC2)c(C#N)c2ccccc21,-0.8,101,i,1,7,-12,84
Cc1ccc(S(=O)(=O)/N=C2/NC(=O)/C(=C\c3ccco3)S2)cc1,-1.6,99,.,.,-9,.,.
O=C(Cn1nnc2ccccc21)OCC(=O)c1ccc(Cl)cc1,.,104,i,0.86,.,.,.
CCOc1cc(/C=N/N=C2/NC(=O)C(CC(=O)O)S2)ccc1OCc1ccccc1Cl (configuration not stated),.,110,i,0.88,2,-43,116
CCCC(=O)Nc1ccccc1NC(=O)C1CCCCC1,-2.7,101,i,0.95,1,23,89
Cc1ccc2c(c1)c1nnc(SCC(=O)N3CCCc4ccccc43)nc1n2CC(=O)O,.,105,i,0.93,-4,40,91
CCOC(=O)CCc1c(C)c(C#N)c2nc3ccccc3n2c1-n1ccnc1,-2.2,116,i,0.99,-10,23,123
CCN(CC)CCCNC(=O)c1ccc2c(=O)n(Cc3ccc4c(c3)OCO4)c(=S)[nH]c2c1,.,99,i,0.81,2,29,108
O=C(CS(=O)(=O)c1ccc2ccccc2c1)Nc1ccccc1Cl,0.3,103,i,1.1,-2,.,.
O=c1cc(CN2CCc3ccccc32)nc2sccn12,-0.2,94,i,1,5,4,80
O=C1N2CN(C(c3ccccc3)c3ccccc3)CN=C2SC1(CO)CO,-2.5,102,i,0.89,-5,-49,120
Cc1cc(Nc2ccccc2)nc(N)n1,-2.3,103,i,1.2,-12,-7,93

# Later entries.
SMILES,GALR2 agonist,RGS16-Gao HTS,HSV augment,HSV augment primary fold,PKD1 kinase inh,INS promoter inh,INS promoter inh cell count
Cc1cccc(NC(=S)NC(=O)c2cc(-c3ccccc3)nc3ccccc23)c1,0.0,96,?,.,-2,.,.
COc1ccc(CCN(Cc2cccs2)S(=O)(=O)c2ccc(-n3cnnn3)cc2)cc1OC,-0.5,106,.,.,0,.,.
Cc1c(NC(=S)N/C(=N/S(=O)(=O)c2ccc(Cl)cc2)c2ccccc2)c(=O)n(-c2ccccc2)n1C,.,105,i,1,.,.,.
Cc1cccc(Cc2c(C)nc3c(C(=O)NCc4ccco4)cnn3c2C)c1,1.1,93,i,0.85,-4,.,.
COc1ccc(OC)c(NC(=O)CC2SC(=Nc3ccc(F)cc3)N(CCC3=CCCCC3)C2=O)c1 (configuration not stated),-0.8,86,i,1.1,-1,9,70
CCOC(=O)NC(NCCc1ccccc1)(C(F)(F)F)C(F)(F)F,-0.6,98,i,1.1,0,35,100
Fc1ccc(-c2nnc(-c3ccc(Cl)cc3)o2)cc1,0.3,108,i,0.99,16,.,.
Nc1c(C(=O)NCc2ccc3c(c2)OCO3)nnn1Cc1cccc(F)c1,.,99,i,1,.,.,.
COc1ccc(CC(=O)NN2C(=O)c3ccccc3C2=O)cc1,-0.8,105,i,0.89,-6,13,89
O=C(Cc1csc(-c2ccccc2)n1)NCc1ccccc1F,-0.6,106,i,0.96,-9,-11,146
O=C(c1ccco1)N1CCN(S(=O)(=O)Cc2ccccc2Cl)CC1,.,96,i,0.93,1,.,.
CCCCCN1C=CC(=C2C(=O)c3ccccc3C2=O)C=C1,.,108,i,1.1,2,.,.
O=C(CCNS(=O)(=O)c1cccc2nonc12)NCc1cccs1,-1.8,75,i,0.89,-7,.,.
O=S(=O)(CCc1nc2ccccc2o1)c1ccc2ccccc2c1,-3.6,70,i,1.1,-4,29,163
COC(=O)c1ccc(C(=O)NN)cc1,.,97,i,0.9,.,.,.
COC(=O)c1c(-c2ccc(C)cc2)csc1NC(=O)c1c(-c2ccccc2)noc1C,-0.6,112,i,0.72,-4,9,103
O=C(Nc1cccc(S(=O)(=O)N2CCOCC2)c1)[C@@H]1CCCN1S(=O)(=O)c1ccc(Cl)cc1,0.0,100,i,1,0,-103,109
CC(NC(=O)c1cc(COc2c(F)cccc2F)on1)c1cnn(-c2ccccc2)c1 (configuration not stated),.,112,i,1,-4,20,66
O=C(CSc1nnnn1-c1cccc(C(=O)O)c1)NC(c1ccccc1)c1ccccc1,.,100,i,1,-3,.,.
CCc1ccc(/C=N/NC(=O)c2ccc(OC3CCCC3)cc2)s1,-2.2,101,i,1,-8,22,82
Cc1ccc(CSc2nc3c(c(SCC(=O)O)n2)CCCC3)cc1,0.0,95,i,0.73,0,-59,79
Cc1cc(C)n(-c2ccc3cccc(NS(C)(=O)=O)c3n2)n1,-0.9,113,i,0.71,-5,34,105
N#Cc1nc(N2CCCC2)nc(N2CCCC2)n1,-3.4,106,i,0.77,-8,-36,112
C=CCn1c(Br)nc2c1c(=O)[nH]c(=O)n2C,-1.8,100,i,0.86,-4,59,42
Cc1nn(Cc2ccccc2)c(Cl)c1C(=O)OC1CCOC1=O (configuration not stated),0.1,97,i,0.94,-3,.,.

# More records
SMILES,GALR2 agonist,RGS16-Gao HTS,HSV augment,HSV augment primary fold,PKD1 kinase inh,INS promoter inh,INS promoter inh cell count
COC(=O)C1=C(C)NC(=S)NC1/C=C/c1ccccc1 (configuration not stated),.,103,i,0.86,2,41,41
Cc1sc(Cc2nc(O)cs2)nc1-c1ccccc1,.,99,i,1.1,-1,-93,140
CCn1c(SCC(=O)NCC2CCCO2)nc2cc(S(=O)(=O)N3CCCCC3)ccc21 (configuration not stated),0.2,63,i,0.98,1,-17,140
CC(C)N(Cc1cnn(C)c1)Cc1nc(COc2ccccc2)no1,.,105,i,1.1,-6,.,.
C1=C(CCNCC2CCCCC2)CCCC1,-1.4,99,.,.,-13,-17,57
CCOc1ccccc1-n1c(SCC(N)=O)nnc1-c1ccccc1,-0.5,101,i,0.91,-7,-155,82
O=C(CSc1ccccc1)NCc1ccc(F)cc1,.,100,i,0.92,2,.,.
COc1ccccc1NS(=O)(=O)c1cc(NC(=O)c2ccccc2F)ccc1N1CCOCC1,.,101,i,0.82,-1,.,.
COc1cccc(CNC(=O)C2CCCN(S(=O)(=O)c3c(C)n[nH]c3C)C2)c1 (configuration not stated),-0.6,94,i,0.95,1,.,.
O=C(COc1ccccc1)NCCSCc1ccccc1Cl,.,105,i,1.1,2,11,90
CCOc1ccc(S(=O)(=O)NC2CCCCCC2)cc1,.,38,i,0.95,-10,.,.
CCNC(=S)Nc1ccc(-c2nc3ccccc3[nH]2)cc1,.,103,i,0.89,-5,.,.
O=C(N/N=C/c1sc(N2CCOCC2)nc1-c1ccccc1)c1ccc(O)cc1,.,97,i,0.94,1,.,.
O=C(CNC(=O)/C(=C\c1ccccc1)NC(=O)c1ccc(Br)cc1)OCc1ccccc1,-1.8,94,i,0.98,8,27,85
Brc1ccccc1OCCCN1CCCCCC1,.,105,i,1.1,-5,.,.
CN(C)CCNc1oc(-c2cccc(Cl)c2)nc1C#N,0.7,5.0*,i,0.6,2,-6,98
Cc1ccc2[nH]c(=O)c(C(c3nnnn3C3CCCC3)N(Cc3cccnc3)Cc3ccco3)cc2c1 (configuration not stated),-2.6,91,i,0.95,-3,6,128
Cc1occc1-c1nnc(SCC(=O)Nc2ccccc2)n1Cc1ccccc1,-0.8,80,.,.,7,.,.
O=C(NC(=O)c1cc(OCC(F)(F)F)ccc1OCC(F)(F)F)Nc1ccccc1,.,104,i,1.1,.,.,.
O=C(NNC(=S)Nc1ccccc1)c1ccc2ncccc2c1,.,98,i,1.1,-1,-123,103
O=C(NC(=S)NCC1CCCO1)c1ccc([N+](=O)[O-])cc1 (configuration not stated),0.9,106,i,0.88,-2,-29,122
O=C(NCCc1ccccc1)c1ccc(OCCOc2ccccc2)cc1,-0.6,78,i,0.92,0,0,36
Cc1ccc(-c2nc3n(n2)Cc2ccccc2-3)cc1,0.8,102,i,0.93,-1,50,94
O=C(c1cc2ccccc2oc1=O)N1CCN(CCc2ccccc2)CC1,0.4,104,i,1,-1,.,.
CC(C)(C)NC(=O)CSc1nnc(-c2ccco2)n1Cc1ccco1,-1.4,89,i,0.92,2,.,.

# Reformatted with each value named: entries from further up
Cc1occc1-c1nnc(SCC(=O)Nc2ccccc2)n1Cc1ccccc1
  GALR2 agonist = -0.8	RGS16-Gao HTS = 80	HSV augment = .	HSV augment primary fold = .	PKD1 kinase inh = 7	INS promoter inh = .	INS promoter inh cell count = .
O=C(NC(=O)c1cc(OCC(F)(F)F)ccc1OCC(F)(F)F)Nc1ccccc1
  GALR2 agonist = .	RGS16-Gao HTS = 104	HSV augment = i	HSV augment primary fold = 1.1	PKD1 kinase inh = .	INS promoter inh = .	INS promoter inh cell count = .
O=C(NNC(=S)Nc1ccccc1)c1ccc2ncccc2c1
  GALR2 agonist = .	RGS16-Gao HTS = 98	HSV augment = i	HSV augment primary fold = 1.1	PKD1 kinase inh = -1	INS promoter inh = -123	INS promoter inh cell count = 103

# (list continues)
SMILES,GALR2 agonist,RGS16-Gao HTS,HSV augment,HSV augment primary fold,PKD1 kinase inh,INS promoter inh,INS promoter inh cell count
COc1ccc(NC(=O)CCC(=O)N/N=C/c2cn(C)nc2C)cc1,.,105,i,0.91,.,.,.
CC(C)(C)NC(=O)NCc1cccnc1,.,100,i,1,.,.,.
CC1(C)CC(NC(=O)c2coc(=O)c(Br)c2)CC(C)(C)N1,-2.1,85,i,1.1,-21,.,.
CCOC(=O)N1CCC(NC(=O)CCC(=O)N2CCOc3ccccc32)CC1,-0.6,99,i,0.96,-9,18,139
Cc1ccc(C)c(N2CCN(C(=O)C3CCCN(S(=O)(=O)c4cnc[nH]4)C3)CC2)c1 (configuration not stated),-1.3,49,i,1,-4,.,.
CC(C)Cn1c(N)c(C(=O)COC(=O)/C=C/c2cccs2)c(=O)n(C)c1=O,.,101,i,0.88,.,.,.
CCCCn1cnc2c1c(=O)[nH]c(=O)n2CCCC,-2.8,102,i,1,-5,65,89
Cc1ccccc1N/C=C/C(=C(C#N)C#N)N(C)C,-2.9,103,i,1.1,-8,30,106
Cc1cccc(OCCCN2C(=O)C(=O)c3cc(C)ccc32)c1,.,101,i,1,6,42,99
CCc1nnc(NC=C2C(=O)OC(C)(C)OC2=O)s1,-0.7,105,i,0.83,-1,.,.
CC(=O)/C(C(=N)N1CCN(c2cccc(Cl)c2)CC1)=C(\C)O,0.4,99,i,0.63,0,6,115
O=C(Oc1cc(=O)oc2ccccc12)c1ccccc1,.,108,i,0.56,15,.,.
Clc1ccc(CSc2nnc(-c3cccnc3)o2)cc1,-0.1,98,i,1,-3,18,133
C/C(=N/NC(=O)c1cc(Cl)ccc1O)C12CC3CC(CC(C3)C1)C2,-1.3,99,i,0.94,-5,26,76
COc1cc(C2NC(=O)N(C)C3=C2C(=O)CCC3)cc(OC)c1OC (configuration not stated),-0.1,98,i,0.94,-4,29,110
CC(C)(C)c1ccc(Oc2ncccc2NC(=O)c2cccs2)cc1,.,96,i,1.1,.,.,.
COc1ccc(-n2nc(C(=O)NCc3cc(OC)ccc3OC)c3c4ccccc4n(C)c3c2=O)cc1,.,104,i,1.1,4,.,.

# Rows were taken by chance; 1.3% or so of the library scored in one or more.
